# Assay outcomes: PubChem, several laboratories
# UCH37 DUB inh: blocks the human deubiquitinase UCH37; Q9Y5K5; purified proteasome/UCH37, Ub-AMC cleavage fluorescence; inhibition, % (test concentration not listed); 0.33% of 330,000 active;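 active means mean of two replicates above 20%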;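 further: 0% = compound-free wells with enzyme and 100% = wells lacking proteasome; stock transfer was 100 nL into about 20 µL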
# Target sequence (Q9Y5K5 whole entry, looked up): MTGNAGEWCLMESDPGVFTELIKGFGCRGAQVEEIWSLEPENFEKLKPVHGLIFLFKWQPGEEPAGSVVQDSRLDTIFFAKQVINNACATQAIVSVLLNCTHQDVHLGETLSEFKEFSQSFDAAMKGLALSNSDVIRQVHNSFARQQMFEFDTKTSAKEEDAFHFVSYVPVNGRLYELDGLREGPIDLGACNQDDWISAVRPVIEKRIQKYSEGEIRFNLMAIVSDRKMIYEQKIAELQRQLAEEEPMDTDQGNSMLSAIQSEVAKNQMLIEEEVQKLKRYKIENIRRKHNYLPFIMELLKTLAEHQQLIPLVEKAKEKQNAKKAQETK
#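 Schedule: 30 min plus 25 min, room temperature / Material: human UCH37 within purified proteasomes / Technique: AMC fluorescence intensity at 355/460 nm / Buffer or medium: pH 7.4 Tris-HCl (50 mM) with ovalbumin, ATP-MgCl2, DTT / Controls: wells without proteasome as full block, compound-free enzyme plus substrate as uninhibited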
# FGF22 binding: FGF22 (human) thermal shift binding; AID 651658; recombinant FGF22 thermal shift, SYPRO orange fluorescence; percent of sucrose octasulfate shift, DMSO zero; 1.5% of 340,000 active; calls only at 9.99 µM; Q9HCT0;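 active means melting point raised past a set limit in the mean and every replicate; inconclusive means no clear call; three in four hits are not shown here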
# Target sequence (Q9HCT0 whole entry, looked up): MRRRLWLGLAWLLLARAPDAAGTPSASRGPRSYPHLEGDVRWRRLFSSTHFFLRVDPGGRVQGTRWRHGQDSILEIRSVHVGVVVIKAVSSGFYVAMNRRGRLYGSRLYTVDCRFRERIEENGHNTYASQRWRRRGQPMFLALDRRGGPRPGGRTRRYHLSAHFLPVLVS
# Ecoli growth: blocks Escherichia coli growth; OD600, 23 h; hits give low values; OD600 absorbance (no concentration beside the values); 0.21% of 330,000 active;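 active means OD600 absorbance below the run mean of sample wells minus 3.6 SD, in any replicate, cut at about 0.56 in these data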;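 further: stock transfer was 300 nL into about 60 µL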
# RanGTP-Imp inh: inhibitors of RanGTP-importin-beta interaction, primary screen, biochemical, FRET, CFP-Ran, YFP-importin-beta, homogeneous; cell-free CFP-Ran/YFP-importin-beta FRET ratio; inhibition, % (test concentration not listed); 1.1% of 300,000 active;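 active means most replicates above 15%; inconclusive means exactly half above 15%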;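 further: 0% = DMSO wells and 100% = Ran loaded with GDP instead of GTP; wells of about 40 µL received 100 nL stock; the first replicate is given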
# AF4-AF9 inh: inhibitors of human MLL-AF4/AF9 interaction. AID 651704. P42568. 0.47% of 350,000 active. inhibition, % at 10 µM. AlphaScreen, biotin-AF4 peptide binding to FLAG-AF9;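 active means every replicate reaching a set inhibition limit, whatever the replicate mean, cut at about 25% in these data; inconclusive means mean inhibition reaches that limit but some replicates miss it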;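 further: 0% = plate neutral control median and 100% = total signal loss; the record names both 10 and 1 µM as test concentration; the first replicate is given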
# Target sequence (P42568 whole entry, looked up): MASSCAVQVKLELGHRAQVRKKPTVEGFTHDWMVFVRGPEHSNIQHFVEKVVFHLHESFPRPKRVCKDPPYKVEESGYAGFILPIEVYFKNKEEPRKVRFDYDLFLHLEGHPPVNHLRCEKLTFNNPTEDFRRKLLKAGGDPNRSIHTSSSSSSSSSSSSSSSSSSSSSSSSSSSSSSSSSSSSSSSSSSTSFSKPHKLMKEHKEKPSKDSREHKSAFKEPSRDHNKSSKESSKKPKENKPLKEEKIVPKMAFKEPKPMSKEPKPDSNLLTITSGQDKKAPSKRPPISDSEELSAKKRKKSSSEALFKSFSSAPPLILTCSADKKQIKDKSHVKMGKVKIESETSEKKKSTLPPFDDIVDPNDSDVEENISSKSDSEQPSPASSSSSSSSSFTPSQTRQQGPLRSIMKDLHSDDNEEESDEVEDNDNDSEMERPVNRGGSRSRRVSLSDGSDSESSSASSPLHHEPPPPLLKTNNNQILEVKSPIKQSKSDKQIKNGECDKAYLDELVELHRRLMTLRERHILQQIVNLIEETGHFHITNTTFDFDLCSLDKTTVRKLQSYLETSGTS
# HNF4A DNA FP: change in binding of human HNF4 alpha to DNA; P41235; HNF4a-FITC DNA binding, fluorescence polarization, 1 h; activity change, % at 10 µM; 0.3% of 360,000 active; in the data active means activity change above about 30%, passing the limit was not always enough;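 further: controls were the assay level and a saturating level of protein; the project sought stronger binding though the title names inhibitors; some compounds called inactive have numbers as strong as hits; positive values seem to mean higher polarization but the record does not say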
# Vif A3G: HIV-1 Vif–A3G interaction blockers – biochemical, TR-FRET, GST-Vif 1-94, biotin-A3G peptide, dose response retest, primary screen (AID 1117319). inhibition, %, or IC50 in µM where a hit was titrated. 0.57% of 260,000 active. TR-FRET GST-Vif / biotin-A3G peptide binding; higher % means a stronger effect; test concentration not given here; strong numbers were not always called active;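 active means above the screen mean plus three standard deviations and confirmed in dose response; inconclusive means results disagree or hit not tested in dose response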;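 further: Vif residues 1-94 fused to GST binding biotinylated APOBEC3G peptide 110-148; 0% = full assay without inhibitor and 100% = GST in place of GST-Vif; retest series ran down from 100 µM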
# The depositor's hits bear a star; i = inactive; u = inconclusive; x = no result given; + = active, no number; & = joins results of further samples. An excerpt (hit frequency here may not be typical).
# Order of results: Vif A3G	FGF22 binding	RanGTP-Imp inh	AF4-AF9 inh	Ecoli growth	UCH37 DUB inh	HNF4A DNA FP
> O=c1cc(O)nc(SCc2ccccc2)n1-c1ccc(Cl)cc1
  6%	x	-2.4	-1.3	0.74	2.4	-0.8
> COc1ccc(Cl)cc1S(=O)(=O)N1CCC(O)(c2ccc(Cl)cc2)CC1
  3%	i	-0.7	-2.8	0.68	6.0	1.3
> O=c1c2ccccc2nc2n1C(CSc1ccc(F)cc1)CS2 (stereo unspecified)
  2%	i	u	-0.2	0.62	1.4	-1.0
> O=C(COC(=O)C1CC2CCCC(C1)C2=O)NNC(=O)c1ccc([N+](=O)[O-])cc1 (stereo unspecified)
  -7%	i	1.2	-1.8	0.7	2.2	0.7
> COc1ccc(-c2cc(=O)oc3cc(OC(C)C(=O)NC4CC4)ccc23)cc1 (stereo unspecified)
  x	i	-2.3	-3.0	0.71	-39	15
> COC(=O)c1[nH]c2ccc(C)cc2c1NC(=O)C1=COCCO1
  -3%	x	1.3	x	0.72	-3.0	-1.4
> COc1ccc(NC(=O)CCNC(=O)c2ccco2)c(OC)c1
  x	i	1.9	2.7	0.65	3.5	-1.3
> Cc1cc(=O)oc(C)c1C(=O)NCCCN1CCN(c2ccccc2F)CC1
  4%	x	6.7	x	0.71	13	-0.2
> CC(=O)Nc1ccc(NC(=O)c2ccc(-c3c(C)noc3C)c3ccoc23)cc1
  x	i	x	1.4	x	x	3.6
> Cc1nn(-c2ccc(F)cc2)c2nc(N)c(C#N)c(-c3cccs3)c12
  -207%	x	4.1	x	0.74	-29	3.3
> C=CCOC(=O)/C(=C\c1cccc2ccccc12)NC(=O)c1ccccc1
  2%	x	-2.3	x	x	3.0	-0.8
> O=C1CCN(CCCc2ccccc2)CCN1[C@H](CO)c1ccccc1
  x	i	-4.5	4.0	x	28*	-2.0
> Clc1ccc(Nc2ccc(-n3ccnc3)nn2)cc1Cl
  -2%	x	-1.1	x	0.51	2.6	3.9
> CCCCn1c(=N)n(CC(=O)c2ccco2)c2ccccc21
  8%	x	14	x	0.69	4.4	-1.2
> COc1ccccc1NC(=O)CSc1nc(O)cc(=O)[nH]1
  -5%&-2%	x	-0.7	x	0.67	5.9	-1.5
> O=C(c1cc2ccccc2o1)n1nnc2ccccc21
  3%	x	-1.5	x	0.72	4.8	-1.1
> COC(=O)Nc1ccc(Cn2cc(C(F)(F)F)ccc2=O)cc1
  -1%	i	-2.7	-2.3	0.68	3.4	-3.2
> COc1ccccc1C(=O)NC(CCSC)C(=O)N1CCC(Cc2ccccc2)CC1 (stereo unspecified)
  -4%	i	4.4	-1.5	0.69	1.3	0.7
> Cc1nccn1CCCNCc1c(C(=O)N2CCCCCCC2)nc2ccc(Cl)cn12
  -16%	i	-2.5	8.5	0.69	-4.8	6.2
> O=C1Cc2ccccc2C(=O)N1Cc1ccccc1
  10%	x	x	x	0.73	26*	-0.3
> CCOc1ccc2nc(SCC(=O)c3ccc(C)s3)sc2c1
  4%	x	1.8	x	0.77	2.6	0.1
> O=C(CNC(=S)N(Cc1ccccc1)Cc1cccnc1)NC1CC1
  x	x	3.3	x	0.72	3.8	-1.3
> O=C(CN(C(=O)c1csnn1)c1ccccc1C(F)(F)F)NCc1ccccc1
  x	i	u	0.0	0.64	-1.4	-0.8
> COc1cc(OC)cc(N2C(=O)CC(N3CCC(C(=O)N4CCCCC4)CC3)C2=O)c1 (stereo unspecified)
  5%	i	2.7	0.4	0.69	1.3	-2.7
> CN1CCN(Cn2cc(/C=C/C(=O)c3ccccc3)c3ccccc32)CC1
  10%	x	67*	x	x	x	1.1
> CCOC(=O)c1c(-c2ccc(Cl)cc2)csc1NC(=O)CNCc1ccco1
  x	i	2.7	0.9	0.73	6.1	1.9
> O=C(N/N=C1\CCCc2c1[nH]c1ccc(Cl)cc21)c1ccncc1
  x	i	-4.0	2.6	x	x	-0.1
> O=C(O)c1cccc(Nc2nc(N3CCOCC3)nc(N3CCOCC3)n2)c1
  -6%	x	1.3	x	0.67	3.4	1.7
> COCCCN1C(=O)C(CC(=O)NCCCCc2ccccc2)CC(C(=O)N(C(C)C)C(C)C)=C1C (stereo unspecified)
  x	i	x	-3.1	x	x	0.0
> COCCCN1C(=O)c2ccc(C(=O)N3CCN(c4ccc(OC)cc4)CC3)cc2C1=O
  -3%	i	-0.6	-2.6	0.68	2.1	0.9
> Cc1nnsc1NC(=O)OCCCl
  2%	x	2.1	x	0.77	3.0	1.4
> CN1CCN(C2CC(=O)N(Cc3ccc(N4CCCC4=O)cc3)C2=O)CC1 (stereo unspecified)
  4%	x	0.9	x	0.71	0.5	0.6
> COc1ccc(OC)c(C(=O)c2coc3ccc(O)cc23)c1
  -3%	x	3.8	-1.8	0.69	3.4	1.8
> O=C1CCc2cc(S(=O)(=O)N3CCC(C(=O)NC4CCCc5ccccc54)CC3)ccc2N1 (stereo unspecified)
  -3%	i	0.7	3.6	0.74	8.0	-1.2
> CC(C)(C)OC(=O)CN1c2cccc3cccc(c23)S1(=O)=O
  -6%	i	1.5	1.6	0.69	-63	-0.2
> O=C(CCCCCNC(=S)Nc1ccc(Cl)cc1)C[N+](=O)[O-]
  -8%	i	-2.2	-0.8	0.68	4.2	-2.9
> Cc1ccc(CN2C(=O)CCC2(C)c2nnnn2-c2ccc3c(c2)OCCO3)cc1 (stereo unspecified)
  x	i	x	-2.3	x	x	3.6
> O=C(NC1CCC(O)CC1)c1ccc(Br)o1 (stereo unspecified)
  -3%	i	x	-2.7	0.68	1.7	-0.9
> CC(=O)c1ccc(OC(=O)c2cccs2)cc1
  23%	x	-25	x	0.7	-0.3	2.7
> O=C(O)CSCC(=O)NCc1ccccc1
  -2%	i	2.1	1.7	0.65	0.9	1.9
> COC(=O)C1Cc2ccccc2CN1S(=O)(=O)c1ccc(C)cc1 (stereo unspecified)
  -3%	i	-5.2	-1.5	0.66	2.7	2.9
> Cc1nc2n(n1)C(O)c1cc([N+](=O)[O-])ccc1S2 (stereo unspecified)
  x	x	13	x	0.68	3.4	x
> Cc1cccc(C)c1NC(=O)C(c1ccccc1)N1CCC(c2ccccc2)CC1 (stereo unspecified)
  x	i	x	-3.1	x	x	-0.5
> CCOC(=O)c1nnn(-c2nc(OC)nc(N3CCCC3)n2)c1-c1ccccc1
  9%	x	2.0	x	0.68	3.2	3.0
> O=C(CCN1CCOCC1)c1ccc(Br)cc1
  x	i	-1.0	-0.7	0.65	5.3	1.3
> CC(C)CN1C(=O)c2ccc(C(=O)Nc3ccc(OCC(=O)O)cc3)cc2C1=O
  -1%	i	7.1	-2.6	0.67	2.9	2.5
> COc1cc(C(=O)Nc2nncs2)cc(OC)c1OC
  -4%	x	-1.7	x	0.72	3.0	-3.0
> CCCCN(C(=O)NCCCCCCNC(=O)N(CCCC)C1CCS(=O)(=O)C1)C1CCS(=O)(=O)C1 (stereo unspecified)
  x	i	4.8	0.6	0.65	-0.8	-2.8
> CCC(c1nnnn1Cc1ccc2c(c1)OCO2)N1CCN(c2ccccc2)CC1 (stereo unspecified)
  2%	x	1.5	x	0.68	1.8	-2.7
> O=C(Nc1ccc(Cl)c([N+](=O)[O-])c1)C(Sc1ccccc1)c1ccccc1 (stereo unspecified)
  0%	i	-6.9	7.2	0.68	3.7	-0.7
> Cc1nc(Nc2ccccc2)sc1C(=O)c1ccc(F)cc1
  -8%	i	-0.5	8.8	0.63	1.0	-9.4
> CCCCN(C(=O)C(C)Oc1ccc(Br)cc1)c1c(N)n(Cc2ccccc2)c(=O)[nH]c1=O (stereo unspecified)
  x	i	1.2	1.1	0.72	5.5	3.3
> N#Cc1ccccc1OCC(=O)N1CCc2ccccc2C1
  -5%	i	1.4	-2.6	0.67	3.8	5.2
> CS(=O)(=O)Nc1ccccc1C(=O)c1ccccc1
  3%	x	-1.0	x	0.67	2.1	-2.6
> CCC1CCCCN1C(=O)CCNC(=O)Cn1cnc2ccccc2c1=O (stereo unspecified)
  x	+	1.1	-0.2	0.66	1.9	-8.2
> Cc1cc(C)n(C(=O)c2c([N+](=O)[O-])cnn2C)n1
  -14%	x	-1.1	x	0.67	5.6	-0.7
> Cc1ccc(CN2CC(C(=O)Nc3ncccc3C)CC2=O)cc1 (stereo unspecified)
  x	i	5.0	-13	0.67	-0.5	-3.2
> COc1ccc(NC(=O)N2CCCC2C(=O)NC23CC4CC(CC(C4)C2)C3)cc1 (stereo unspecified)
  x	i	7.0	-1.8	0.67	1.6	-0.9
> CCn1cc(C(=O)Nc2cccc(C(=O)OC)c2)c(=O)c2ccc(C)nc21
  x	x	-2.6	x	0.7	3.5	0.2
> COC(=O)c1sc2nc(-c3ccccc3)c3c(c2c1N)CCCC3
  -1%	x	1.0	x	0.66	-221	0.9

# Two entries drawn at random from those above:
# Order of results: Vif A3G	FGF22 binding	RanGTP-Imp inh	AF4-AF9 inh	Ecoli growth	UCH37 DUB inh	HNF4A DNA FP
> O=C1CCc2cc(S(=O)(=O)N3CCC(C(=O)NC4CCCc5ccccc54)CC3)ccc2N1 (stereo unspecified)
  -3%	i	0.7	3.6	0.74	8.0	-1.2
> CCCCN(C(=O)C(C)Oc1ccc(Br)cc1)c1c(N)n(Cc2ccccc2)c(=O)[nH]c1=O (stereo unspecified)
  x	i	1.2	1.1	0.72	5.5	3.3

# More records
# Order of results: Vif A3G	FGF22 binding	RanGTP-Imp inh	AF4-AF9 inh	Ecoli growth	UCH37 DUB inh	HNF4A DNA FP
> COc1cc(NC(=O)COc2ccc(-n3cnnn3)cc2)cc(OC)c1OC
  x	i	x	0.0	0.68	-2.2	1.3
> Cc1ccc(OCCC(=O)OCC(=O)Nc2ccccc2)cc1
  x	i	-3.3	0.9	0.67	0.4	16
> O=C(NC1CCCC1)C(c1ccco1)N(C(=O)c1ccco1)c1ccccc1 (stereo unspecified)
  x	i	1.2	2.8	0.65	2.0	-2.9
> CCOc1cc(/C=N/NC(=O)c2ccc(O)cc2)ccc1Oc1nc(Cl)ncc1F
  25%	i	1.5	2.6	x	x	2.5
> O=c1c2ccccc2[nH]c(=S)n1CCC1=CCCCC1
  x	x	3.6	x	0.71	4.3	3.4
> COc1cccc(C2NC(=O)NC(C)=C2C(=O)Nc2cc(OC)ccc2OC)c1 (stereo unspecified)
  -6%	x	-3.1	x	0.64	0.7	-3.5
> CN(Cc1nc2ccccc2n1C)S(C)(=O)=O
  -5%	x	-3.9	x	0.73	6.3	1.8
> O=C(O)c1cccc2c1C(=O)c1cc(Br)ccc1S2(=O)=O
  x	i	x	0.4	x	x	-1.2
> CC(=O)c1cccc(NC(=S)N2CCN(CCN3C(=O)c4cccc5cccc(c45)C3=O)CC2)c1
  -8%	i	1.0	-0.1	0.66	0.8	2.3
> CS(=O)(=O)N(CC(=O)NCCSc1ccccc1)c1ccc2c(c1)OCO2
  19%	i	-2.0	-28	0.68	0.4	5.1
> COc1ccc(C2CC(c3cccs3)=NN2C(=O)CSc2nncn2C)cc1OC (stereo unspecified)
  0%	i	u	3.4	0.71	4.7	-0.7
> CN(CC1CCCO1)S(=O)(=O)c1ccc(C(=O)N2CCN(c3ccccc3)CC2)cc1 (stereo unspecified)
  0%	i	0.4	-2.4	0.67	5.2	-0.3
> CC(Sc1nnc(-c2cccnc2)n1C)C(=O)N1CCOCC1 (stereo unspecified)
  -5%	i	-1.2	-0.3	0.68	4.7	-1.9
> Cn1c(SCC2CCCO2)nnc1-c1ccncc1 (stereo unspecified)
  2%	x	5.8	x	0.71	-0.7	-0.4

# Of the compounds above, two contain a cyano group.
# Order of results: Vif A3G	FGF22 binding	RanGTP-Imp inh	AF4-AF9 inh	Ecoli growth	UCH37 DUB inh	HNF4A DNA FP
> Cc1nn(-c2ccc(F)cc2)c2nc(N)c(C#N)c(-c3cccs3)c12
  -207%	x	4.1	x	0.74	-29	3.3
> N#Cc1ccccc1OCC(=O)N1CCc2ccccc2C1
  -5%	i	1.4	-2.6	0.67	3.8	5.2
